# Bioassay records: PubChem BioAssay, several laboratories
# RGS16-Gao HTS = RGS16-Galphao interaction regulator (human); bead-based flow cytometry RGS16-Galphao binding, fluorescence; actives lie on both sides; O15492+P09471; binding response (% of control), % at 10 µM; 0.38% of 220,000 active; AID 1441;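 active = below 25% or above 175%, edge rows of some plates excepted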;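 note: Galphao activated by GDP with aluminum fluoride before binding; 100% = wells without compound and 0% = beads without RGS; some results beyond the cut were filed as inactive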
# INS promoter inh = TRM-6 insulin promoter activity inhibition; TRM-6 cells (human fetal islet line), insulin promoter-eGFP reporter, imaging; reporter expression induced with tamoxifen; inhibition, % at 2 µM; 0.9% of 130,000 active; AID 1273;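 active = inhibition above the mean plus 3 SD, with well images judged a real hit on visual review, cut at about 60% in these data, passing the limit was not always enough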
# GALR2 agonist = agonists of human galanin receptor 2 (GALR2) | AID 803 | activation, %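 (tested at 5 µM)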 | GALR2-expressing cells, agonist activation read-out | O43603 | 0.48% of 140,000 active;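 active = above mean plus 3 SD of all compounds, about 5% in these data, not always enough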;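 note: 0% = vehicle buffer wells and 100% = reference agonist at full effect; tested in CHO reporter cells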
# HSV replic up = increases HSV replication in cells; HSV replication augmentation in cells, fold increase; maximum fold increase; 0.005% of 220,000 active;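 active = peak rise of 1.5-fold or more in the series; tested in PC3 cells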;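 note: first round at 10 µM; read as green reporter fluorescence; hits show the peak of a series up to 25 µM; 1 = signal of infected wells without compound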
# PKD1 inh = inhibitors of human PKD1 kinase. Q15139. PKD1 kinase fluorescence polarization assay. 0.056% of 200,000 active. inhibition, %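 (about 10 µM by stock and volumes)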;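 active = inhibition of 50% or more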;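 note: controls were vehicle for no effect and a reference inhibitor for full effect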
# Target sequence (Q15139 whole entry, looked up): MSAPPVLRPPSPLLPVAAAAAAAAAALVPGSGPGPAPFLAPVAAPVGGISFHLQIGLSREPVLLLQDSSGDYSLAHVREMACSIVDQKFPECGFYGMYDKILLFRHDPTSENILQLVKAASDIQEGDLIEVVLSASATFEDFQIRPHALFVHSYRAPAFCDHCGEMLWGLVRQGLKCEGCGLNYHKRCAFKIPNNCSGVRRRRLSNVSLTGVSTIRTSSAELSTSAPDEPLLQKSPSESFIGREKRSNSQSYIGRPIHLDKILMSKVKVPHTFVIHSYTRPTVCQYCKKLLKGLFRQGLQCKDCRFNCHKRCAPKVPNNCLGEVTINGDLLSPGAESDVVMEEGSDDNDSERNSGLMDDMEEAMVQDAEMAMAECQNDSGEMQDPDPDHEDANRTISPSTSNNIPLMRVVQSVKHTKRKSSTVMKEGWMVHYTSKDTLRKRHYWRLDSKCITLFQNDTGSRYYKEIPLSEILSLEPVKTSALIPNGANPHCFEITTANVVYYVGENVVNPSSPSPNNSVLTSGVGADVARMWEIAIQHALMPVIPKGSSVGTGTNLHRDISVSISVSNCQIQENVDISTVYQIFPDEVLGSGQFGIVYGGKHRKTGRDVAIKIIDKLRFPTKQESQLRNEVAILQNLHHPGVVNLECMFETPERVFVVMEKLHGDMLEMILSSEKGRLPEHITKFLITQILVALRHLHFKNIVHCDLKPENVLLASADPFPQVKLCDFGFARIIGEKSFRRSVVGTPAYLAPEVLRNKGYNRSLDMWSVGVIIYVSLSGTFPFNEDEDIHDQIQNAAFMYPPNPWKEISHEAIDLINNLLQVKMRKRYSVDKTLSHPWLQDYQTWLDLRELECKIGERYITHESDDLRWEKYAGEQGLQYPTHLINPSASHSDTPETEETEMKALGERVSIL
# INS promoter inh cell count = further read-out of INS promoter inh, marked with its call; normalized cell count, %; measured here: cell count, toxicity; reference of the scale not given here;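 cells exposed to compound for 48 h; stained nuclei by imaging scaled within each plate; lower means fewer cells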
# HSV replic up primary fold = recorded beside HSV replic up, whose call it bears; fold increase; compound at 10 µM; measured here: primary screen fold increase 10 uM; tested in PC3 cells;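 GFP signal in the first replicate; 1 = infected wells without compound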
# An asterisk follows results filed as active; i = inactive; nt = not tested or not shown.
SMILES,RGS16-Gao HTS,INS promoter inh,INS promoter inh cell count,GALR2 agonist,HSV replic up,HSV replic up primary fold,PKD1 inh
CC(=O)Nc1cccc(S(=O)(=O)N2CCCCCC2)c1,99.7,-13.0,119.8,0.7,i,0.987,-16.6
CCCn1c(SCC(=O)OCC)nc(C(F)(F)F)cc1=O,97.9,14.3,98.5,nt,i,0.95,6.3
O=C(c1ccco1)[C@@H]1[C@@H]2C(=O)N(c3ccc(F)cc3)C(=O)[C@@H]2C2c3ccccc3C=CN21 (stereo not given in full),99.8,-7.1,59.4,-3.8,i,1.21,-4.9
Cc1nn(-c2ccccc2)c(C)c1/C=N/NC(=O)CSc1nnc(SCc2ccc(Cl)cc2)s1,104.5,nt,nt,-0.8,nt,nt,4.8
COc1ccc(-c2csc(NC(=O)C3CCCO3)n2)cc1 (stereo not given),95.0,0.0,147.0,-4.0,i,1.02,-17.5
COc1ccc2[nH]c(=O)c(CN(Cc3ccc(C)cc3)Cc3nnnn3CC3CCCO3)cc2c1 (stereo not given),94.6,-92.9,81.3,-1.6,i,1.02,-4.5
CC1(C)Cc2c(sc(/N=C/N3CCCCC3)c2C#N)C(C)(C)N1,100.7,26.0,123.5,-2.7,i,1.07,0.2
COc1ccc(/C=C/C(=O)OCc2csc(-c3ccccc3)n2)cc1OC,28.2,-24.1,92.5,0.1,i,0.96,5.0
c1coc(C2Nc3ccccc3C3OCCC23)c1 (stereo not given),104.0,-37.8,65.9,-1.8,i,0.94,-6.8
Cc1ccc(C(C)NC(=O)c2cc(C)oc2C)cc1 (stereo not given),97.3,61.1,86.4,-3.0,i,0.87,-6.1
Cc1ccc(CNC(=O)c2cccc(S(C)(=O)=O)c2)cc1,116.0,3.5,126.6,0.2,i,1.12,1.4
CN1C(=S)SC(N2OC3C(=O)N(c4ccccc4)C(=O)C3C2c2ccc(Cl)cc2)C1(C)C (stereo not given),135.5,nt,nt,-0.7,i,0.99,13.1
COc1cc2c(cc1OC)/C(=C/c1ccc(Cl)cc1)C(=O)OC2,107.8,nt,nt,0.4,i,0.77,-5.1
CC1Cc2ccccc2N1C(=S)NC(=O)c1cccc(Br)c1 (stereo not given),77.8,nt,nt,-0.1,i,0.89,4.1
COc1ccc(CNC(=O)CSc2nnc(-c3ccc(NC(C)=O)cc3)n2C)cc1,94.5,-268.8,87.6,-0.4,i,1.07,-0.8
CN(C)S(=O)(=O)N(CC(=O)NCCSCc1ccc(Cl)cc1)c1ccccc1,91.5,nt,nt,nt,i,0.87,-1.8
CCC(CC)C(=O)Nc1ccc(Sc2ccc([N+](=O)[O-])cc2)cc1,102.0,31.0,92.5,-0.2,i,1.33,-1.9
O=C(COC(=O)/C=C/c1ccc([N+](=O)[O-])cc1)NCc1ccc2c(c1)OCO2,107.8,nt,nt,nt,i,0.87,nt
CCOc1ccc(Nc2nc3cc(S(=O)(=O)CC)ccc3o2)cc1,96.2,nt,nt,nt,i,0.86,nt
CC(=O)N1CCc2cc(S(=O)(=O)CCC(=O)N3CCN(C(=O)c4ccco4)CC3)ccc21,45.2,-6.5,52.8,-1.7,i,1.03,-5.9
COc1ccc(C2NC(Cc3ccccc3)(C(=O)O)C3C(=O)N(c4ccccc4OC)C(=O)C23)cc1 (stereo not given),103.4,56.2,116.5,nt,i,0.93,-9.7
CC(=O)Nc1ccc(S(=O)(=O)N(C)c2ccc(O)cc2)cc1,99.8,9.7,129.8,-1.9,i,1.01,8.2
COC(=O)CSc1nc2cc(Cl)ccc2c(=O)n1C1CCCC1,98.4,-6.1,115.9,-0.3,i,0.81,-6.4
Cn1nc(-c2ccc(N3CCOCC3)c(NS(=O)(=O)c3ccccc3)c2)c2ccccc2c1=O,97.7,13.6,72.6,-1.4,i,0.79,0.5
C/C(=N\NC(=O)c1nn(C)cc1Br)c1cccc(NC(=O)C(C)(C)C)c1,62.2,8.6,76.2,-2.3,i,0.83,-6.3
CCOC(=O)C(CC)/C(C)=N/NC(=O)c1ccc([N+](=O)[O-])cc1 (stereo not given),102.8,nt,nt,-3.0,i,0.98,3.9
Cc1cc(C)nc(SCC(CSc2nc(C)cc(C)n2)C(=O)O)n1,103.9,-23.5,78.5,nt,i,1.07,-4.8
CCOc1ccc(CN(C(=O)c2oc3ccccc3c2C)C2CCS(=O)(=O)C2)cc1 (stereo not given),102.1,38.2,54.5,-2.2,i,0.73,-0.5
Cc1ccccc1C(=O)NNC(=O)Cc1cccc2ccccc12,106.7,0.0,122.5,-0.9,i,0.92,3.6
CN(CC(O)COc1c(F)cc(Br)cc1F)C1CCCCC1 (stereo not given),146.6,-12.9,77.6,-1.4,i,0.87,-1.5
COc1ccccc1CNC(=O)COC(=O)c1ccc(NC(N)=O)cc1,131.4,24.2,102.9,0.8,i,0.86,-19.8
O=C(CCc1ccccc1)Nc1cc2c(cc1Cl)OCCO2,133.6,-69.2,38.3,-1.3,i,1.03,-2.0
COc1ccc(NC2=NCCC(=O)N2Cc2cccs2)cc1,89.1,20.0,118.0,-2.4,i,1.07,-10.4
COc1ccc(CNc2cc([N+](=O)[O-])ccc2OC)cc1,102.3,19.4,82.3,-2.4,i,0.77,-4.9
O=C(CS(=O)(=O)c1c[nH]c2ccccc12)N1CCCCCC1,111.9,-9.1,159.0,nt,i,0.92,-4.7
O=C(OCC(=O)c1ccc(Cl)s1)c1ccc2ccccc2n1,120.4,26.7,69.4,-0.2,i,1.11,-1.0
O=C(NN1C(=O)/C(=C/c2ccc(O)c([N+](=O)[O-])c2)SC1=S)c1ccccc1Cl,99.8,nt,nt,nt,i,1.11,-2.0
O=C(O)c1ccc(-n2cncn2)c([N+](=O)[O-])c1,104.5,nt,nt,nt,i,1.43,nt
N/C(=N\OC(=O)CC1CCCCC1)c1ccccn1,96.5,nt,nt,-3.6,i,1.18,7.0
CCOc1ccc(-n2c(SCc3cc(=O)oc4cc(C)ccc34)nnc2-c2cccnc2)cc1,65.7,29.0,66.7,-0.9,i,0.97,-5.8
Cn1c(CNC(=O)c2ccco2)nnc1SCC(=O)Nc1c(F)cc(F)cc1Br,114.9,nt,nt,nt,i,1,-10.1
O=C(NCc1nc2ccccc2[nH]1)C1=C[C@@H](c2csc3ccccc23)C[C@@H](OCCCCO)O1,100.5,nt,nt,nt,i,0.81,nt
Cc1c(NC(=O)Nc2ccc(Cl)c(Cl)c2)sc(=S)n1C,nt,27.9,51.7,-3.3,i,0.87,3.8
COCCn1c(-c2ccc(OC)cc2)cnc1SCC(=O)Nc1cc(C)on1,102.7,nt,nt,-1.0,i,0.97,-12.0
Cc1nc(Nc2ccc(S(=O)(=O)N3CCCCC3C)cc2)c2nnn(Cc3ccccc3)c2n1 (stereo not given),97.6,11.5,146.2,-0.1,i,0.87,-8.8
CCOC(=O)c1ccc(NC(=S)Nc2ccccc2)cc1,100.3,35.5,135.7,-0.5,i,1.06,-2.4
COc1ccc(S(=O)(=O)c2nnn(-c3cccc(Cl)c3)c2N)cc1,98.7,-12.5,69.1,nt,i,0.9,-8.9
CN(C)c1ccc(NC(=O)Nc2cccc3ccccc23)cc1,104.5,nt,nt,nt,i,0.95,2.3
Cc1cc(N2CC(C)OC(C)C2)nc2ccccc12 (stereo not given),95.8,nt,nt,nt,i,0.96,2.9
COC(=O)c1nc2n(n1)C(c1ccc([N+](=O)[O-])cc1)C(C(=O)Nc1ccc(Cl)cc1)=C(C)N2 (stereo not given),101.8,-30.0,95.8,0.0,i,1.03,-8.7
Cc1ccc(-c2nn3c(C)nnc3s2)cc1NC(=O)c1ccc(Br)o1,100.9,nt,nt,-1.8,i,0.91,-8.8
Cc1nc2nc(COc3ccccc3)nn2c(C)c1Cl,104.0,-456.2,46.3,-2.4,i,0.85,-2.3
COC(=O)c1cc2oc(C)cc2n1CC(=O)N1CCCc2ccccc21,63.6,nt,nt,-1.2,nt,nt,-10.8
Cc1cccc(C)c1OCc1n[nH]c(=S)n1-c1ccccc1,97.1,46.1,80.6,nt,i,0.96,-0.4
COc1cc(C)ccc1OCCCON1C(=O)CCC1=O,113.2,nt,nt,-1.6,i,0.91,2.4
Cn1cnc([N+](=O)[O-])c1Nc1cccc(O)c1,120.1,-19.5,113.3,-2.0,i,0.94,-0.5
O=C(O)C1CCC(CN(Cc2cccc(Br)c2)C(=S)Nc2ccccc2F)CC1 (stereo not given),99.1,nt,nt,nt,i,0.88,-3.5
O=C(/C=C/c1cccs1)c1cc(Br)ccc1OC(=O)N1CCOCC1,101.4,-35.7,50.2,-0.7,i,0.803,-10.3
CCOC(=O)c1ccc(NC(=S)N2CCN(c3ccc(N4CCOCC4)nn3)CC2)cc1,100.5,nt,nt,nt,i,1,-3.1
CCOC(=O)C1=C(Nc2ccccc2)CC(C)(O)C(C(=O)OCC)C1c1ccccc1 (stereo not given),58.0,-20.6,60.6,-1.5,i,1.01,-3.6

# Another view of some results above:
Compound | RGS16-Gao HTS | INS promoter inh | INS promoter inh cell count | GALR2 agonist | HSV replic up | HSV replic up primary fold | PKD1 inh
O=C(/C=C/c1cccs1)c1cc(Br)ccc1OC(=O)N1CCOCC1 | 101.4 | -35.7 | 50.2 | -0.7 | i | 0.803 | -10.3
CCOC(=O)c1ccc(NC(=S)N2CCN(c3ccc(N4CCOCC4)nn3)CC2)cc1 | 100.5 | nt | nt | nt | i | 1 | -3.1

# The list goes on:
SMILES,RGS16-Gao HTS,INS promoter inh,INS promoter inh cell count,GALR2 agonist,HSV replic up,HSV replic up primary fold,PKD1 inh
O=c1c(N=Nc2ccc(O)cc2)c(-c2ccccc2)[nH]n1-c1ccc([N+](=O)[O-])cc1,111.7,nt,nt,nt,i,0.76,-4.1
O=C(O)c1ccc(C[n+]2c(-c3ccccc3)csc2Nc2ccccc2)cc1,106.6,nt,nt,-0.6,i,1.02,-9.3
CCCCn1c(O)c(N=Nc2ccccn2)c2ccccc21,95.1,-6.5,111.9,0.3,i,0.93,-5.4
O=C(OCc1ccc(COC(=O)c2ccccn2)cc1)c1ccccn1,94.2,37.1,73.5,-5.7,i,0.61,-0.2
COC(=O)C1C(c2ccccc2)C(C(=O)N2CCN(C)CC2)C1c1ccccc1 (stereo not given),135.2,-38.5,54.3,-1.7,i,0.77,2.7
CCn1c(SCC(=O)Nc2cc(C)nn2-c2ccccc2)nnc1-c1cccs1,101.1,nt,nt,nt,i,0.9,nt
COc1ccc(-c2noc(COc3ccccc3OC)n2)cc1OC,103.9,nt,nt,-2.5,i,0.84,-2.5

# Molecules listed so far with a nitro group on carbon:
SMILES,RGS16-Gao HTS,INS promoter inh,INS promoter inh cell count,GALR2 agonist,HSV replic up,HSV replic up primary fold,PKD1 inh
CCC(CC)C(=O)Nc1ccc(Sc2ccc([N+](=O)[O-])cc2)cc1,102.0,31.0,92.5,-0.2,i,1.33,-1.9
O=C(COC(=O)/C=C/c1ccc([N+](=O)[O-])cc1)NCc1ccc2c(c1)OCO2,107.8,nt,nt,nt,i,0.87,nt
CCOC(=O)C(CC)/C(C)=N/NC(=O)c1ccc([N+](=O)[O-])cc1 (stereo not given),102.8,nt,nt,-3.0,i,0.98,3.9
COc1ccc(CNc2cc([N+](=O)[O-])ccc2OC)cc1,102.3,19.4,82.3,-2.4,i,0.77,-4.9
O=C(NN1C(=O)/C(=C/c2ccc(O)c([N+](=O)[O-])c2)SC1=S)c1ccccc1Cl,99.8,nt,nt,nt,i,1.11,-2.0
O=C(O)c1ccc(-n2cncn2)c([N+](=O)[O-])c1,104.5,nt,nt,nt,i,1.43,nt
COC(=O)c1nc2n(n1)C(c1ccc([N+](=O)[O-])cc1)C(C(=O)Nc1ccc(Cl)cc1)=C(C)N2 (stereo not given),101.8,-30.0,95.8,0.0,i,1.03,-8.7
Cn1cnc([N+](=O)[O-])c1Nc1cccc(O)c1,120.1,-19.5,113.3,-2.0,i,0.94,-0.5
O=c1c(N=Nc2ccc(O)cc2)c(-c2ccccc2)[nH]n1-c1ccc([N+](=O)[O-])cc1,111.7,nt,nt,nt,i,0.76,-4.1
